MLL AF4-AF9 inh – inhibitors of AF4 peptide binding to AF9, primary screen, biochemical, AlphaScreen, biotin-AF4 peptide, FLAG-AF9, single point; actives 0.47% (n = 350,000); inhibition, % at 10 µM; Protein AF-9 (Homo sapiens), P42568;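 active = every replicate reaching a set inhibition limit, whatever the replicate mean, cut at about 25% in these data; inconclusive = mean inhibition reaches that limit but some replicates miss it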;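 note: 0% = plate neutral control median and 100% = total signal loss; the record names both 10 and 1 µM as test concentration; the first replicate is given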
Target sequence (P42568 whole entry, looked up): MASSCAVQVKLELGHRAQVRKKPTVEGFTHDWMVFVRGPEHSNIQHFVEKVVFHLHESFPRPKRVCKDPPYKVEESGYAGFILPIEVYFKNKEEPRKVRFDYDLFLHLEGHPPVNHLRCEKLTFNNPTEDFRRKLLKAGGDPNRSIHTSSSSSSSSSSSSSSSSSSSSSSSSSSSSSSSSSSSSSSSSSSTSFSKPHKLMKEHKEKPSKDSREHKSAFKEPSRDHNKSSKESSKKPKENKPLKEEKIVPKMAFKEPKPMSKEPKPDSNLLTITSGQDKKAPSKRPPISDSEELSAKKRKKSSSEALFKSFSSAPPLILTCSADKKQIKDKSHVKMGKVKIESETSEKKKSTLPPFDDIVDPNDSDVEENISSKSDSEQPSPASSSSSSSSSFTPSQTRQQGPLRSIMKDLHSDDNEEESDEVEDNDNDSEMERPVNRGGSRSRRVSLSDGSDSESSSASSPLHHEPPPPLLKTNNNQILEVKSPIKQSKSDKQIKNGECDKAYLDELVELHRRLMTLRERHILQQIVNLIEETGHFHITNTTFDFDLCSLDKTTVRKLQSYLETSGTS
Ecoli growth – E. coli growth inhibition, primary screen, OD600; actives 0.21% (n = 330,000); OD600 absorbance (no concentration beside the values); Escherichia coli growth, 23 h; stronger effect = lower value;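 active = OD600 absorbance below the run mean of sample wells minus 3.6 SD, in any replicate, cut at about 0.56 in these data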;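 note: stock transfer was 300 nL into about 60 µL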
A1 inh – caspase 3/7 activation in MEF A1-2A-BIM cells, primary screen, A1 inhibitor project, cell-based, luminescence, HTS. caspase activation, % (test concentration not listed). actives 0.066% (n = 330,000). AID 2462, 2010. Caspase-Glo 3/7 luminescence, 3 h; percent of clofoctol response, vehicle zero;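 active = over half of replicate activation scores above 10%, or exactly half above 10 with the replicate mean above 10; inconclusive = replicate mean below 10 yet half the replicates above 10; inactive = over half of replicates below 10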;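 note: wells of about 30 µL received 50 nL stock; many hits fall short of the cut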
Beta apoptosis – inhibitors of cytokine-induced beta cell apoptosis, primary screen, luminescence | actives 0.8% (n = 300,000) | INS-1E cytokine-induced death, ATP luminescence, 48 h; percent of positive-control rescue, neutral wells zero | protection from apoptosis, % (concentration not given with the values);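 active = all replicates at 75% or more, or half of them and the mean; inconclusive = half reach 75% but not the mean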;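 note: 0% = cytokine-treated negative control wells and 100% = positive control rescue; higher means more ATP so stronger rescue from cytokine killing; wells of about 40 µL received 100 nL stock; the first replicate is given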
UCH37 DUB inh – inhibitors of human UCH37 deubiquitinase, primary screen, biochemical, Ub-AMC cleavage, fluorescence; Ubiquitin carboxyl-terminal hydrolase isozyme L5 (Homo sapiens), Q9Y5K5; inhibition, % (test concentration not listed); actives 0.33% (n = 330,000); purified proteasome/UCH37;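 active = mean of two replicates above 20%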;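 note: 0% = compound-free wells with enzyme and 100% = wells lacking proteasome; stock transfer was 100 nL into about 20 µL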
Target sequence (Q9Y5K5 whole entry, looked up): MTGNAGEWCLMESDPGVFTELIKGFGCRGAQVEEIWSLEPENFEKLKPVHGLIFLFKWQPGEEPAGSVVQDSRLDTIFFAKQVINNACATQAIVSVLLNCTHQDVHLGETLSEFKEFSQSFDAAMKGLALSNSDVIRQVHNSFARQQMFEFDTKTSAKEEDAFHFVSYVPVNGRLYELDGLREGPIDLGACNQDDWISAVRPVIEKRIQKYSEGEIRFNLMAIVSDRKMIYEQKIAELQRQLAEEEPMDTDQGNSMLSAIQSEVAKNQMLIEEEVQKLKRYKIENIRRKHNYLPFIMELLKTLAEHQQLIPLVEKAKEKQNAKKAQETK
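Test system – human UCH37 enzyme supplied as purified proteasome complex · Incubation – 30 min preincubation with enzyme, 25 min cleavage at room temperature · Detection – AMC fluorescence from Ub-AMC cleavage, excitation 355 nm, emission 460 nm · Benchmarks – no-proteasome wells (full inhibition) and compound-free wells (no inhibition)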
Ecoli rRNA inh – reduced GFP signal of wild-type E. coli, primary screen, bacterial rRNA inhibitor project, GFP/RFP fluorescence, OD600, single point; GFP signal change (wild-type ribosome), % (concentration not given with the values); E. coli WT GFP vs humanized-ribosome RFP mutants, 24 h; stronger effect = lower value; DMSO median 0, no signal -100; actives 1.6% (n = 350,000);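 active = significant combined selectivity score with lowered wild-type GFP, culture density cut under 30%, mutant RFP and density less affected; inactive = any of these conditions unmet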; note: one replicate is shown; some compounds called inactive have numbers as strong as hits
T cruzi repl – inhibitors of intracellular T. cruzi growth, primary screen, luminescence, NIH3T3 host cells | T. cruzi beta-gal in NIH3T3, 90 h | inhibition, % (test concentration not listed) | actives 1.4% (n = 300,000);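 active = mean inhibition across valid replicates above about 55%, limit read from the data; inconclusive = mean below that limit but half or more replicates reach it; inactive = mean below it, under half of replicates reach it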;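 note: signal also drops with host cell toxicity which is not excluded here; 0% = plate median of DMSO wells and 100% = zero luminescence signal; higher percent means less beta-gal luminescence so fewer parasites; stock transfer was 50 nL into about 50 µL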
FGF22 binding – binders of human FGF22 protein, primary screen, FGF22 synaptogenesis inhibitor project, biophysical, thermal shift, single point; Fibroblast growth factor 22 (Homo sapiens), Q9HCT0; recombinant FGF22 thermal shift, SYPRO orange fluorescence; percent of sucrose octasulfate shift, DMSO zero; calls only at 9.99 µM; actives 1.5% (n = 340,000); AID 651658, 2012;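 active = melting point raised past a set limit in the mean and every replicate; inconclusive = no clear call; three in four hits are not shown here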
Target sequence (Q9HCT0 whole entry, looked up): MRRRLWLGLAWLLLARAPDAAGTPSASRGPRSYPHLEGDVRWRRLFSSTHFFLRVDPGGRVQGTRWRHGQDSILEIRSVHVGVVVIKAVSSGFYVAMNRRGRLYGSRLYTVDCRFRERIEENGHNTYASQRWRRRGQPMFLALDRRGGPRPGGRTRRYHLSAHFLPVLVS
Ecoli rRNA inh OD600 – also measured in Ecoli rRNA inh; calls as there; OD600 change, %; measured here: OD600 growth;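 optical density of the mix in the first replicate; 0 = DMSO median and -100 = no signal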
Ecoli rRNA inh RFP – second read-out of Ecoli rRNA inh, no call of its own (marks repeat the call); RFP signal change, %; measured here: RFP humanized mutant strains;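 first replicate; 0 = DMSO median and -100 = no signal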
* hit, by the source's call; i = inactive; ? = inconclusive; . = no result given; & = joins results of further samples. Only part of the results is shown; count on the stated rates, not on these rows.

Below each compound – Ecoli growth	A1 inh	Ecoli rRNA inh RFP	T cruzi repl	Ecoli rRNA inh OD600	Beta apoptosis	FGF22 binding	UCH37 DUB inh	MLL AF4-AF9 inh	Ecoli rRNA inh
- Cc1cc(C)cc(NC(=O)CCc2nc3ccccc3[nH]2)c1
→ 0.73	0.4	.	0	.	4	.	1.6	.	.
- Cc1ccc(CNC(=O)Cn2nnc(C(=O)Nc3cccc(C)c3C)c2N)cc1
→ 0.67	-0.1	-2.8	-6	8	-2	i	-1.3	1.1	1
- Fc1ccc(-c2cc3nc(-c4ccccc4)cc(N4CCOCC4)n3n2)cc1
→ 0.73	-0.1	.	14	.	3	.	-485	.	.
- CCCCC#Cc1ccc(C(=O)NNC(=O)Nc2ccccc2)o1
→ 0.68	0.1	2.3	7	7	-5	i	2.2	.	16
- CCNc1nc(NCC)nc(N/N=C/c2ccc(N(C)C)cc2)n1
→ .	-0.5	2.2	-8	2	2	i	.	12	9
- COc1ccc(Cl)c(Cn2c(NCCCO)nc3c2c(=O)n(C)c(=O)n3C)c1
→ 0.68	-0.7	.	5	.	1	.	1.0	.	.
- CCS(=O)(=O)Nc1cccc(-c2ccc3nnc(C)n3n2)c1
→ 0.71	0.4	-0.2	-16	9	1	i	0.9	-2.7	4
- N#Cc1ccsc1NC(=O)COC(=O)c1cc(Br)ccc1O
→ 0.72	-6.9	0.2	0	2	5	i	-1.0	-31	-2
- CCN(C(=O)c1cccc(NC(=O)c2ccccc2)c1)C1CCCCC1
→ 0.68	-2.0	-6.4	10	-30	0	i	2.1	1.6	-28
- CCc1nnc(NC(=O)c2ccc3ccccc3n2)s1
→ 0.62	-0.7	14	-9	-16	3	.	6.4	-2.1	-8

Below each compound – Ecoli growth	A1 inh	Ecoli rRNA inh RFP	T cruzi repl	Ecoli rRNA inh OD600	Beta apoptosis	FGF22 binding	UCH37 DUB inh	MLL AF4-AF9 inh	Ecoli rRNA inh
- COc1ccc(CCN2C(=O)C3C4CC(C5C(C(=O)O)=NOC45)C3C2=O)cc1OC (stereo not given)
→ 0.7	-1.0	.	-11	.	3	.	0.7	.	.
- CCCn1c(SCC(=O)Nc2nc(C)cs2)nnc1-c1cccnc1
→ 0.66	0.1	-4.0	.	-2	-3	.	0.0	.	-4
- O=c1cc(CSc2nnnn2-c2ccccc2)nc2nc[nH]n12
→ 0.69	-0.1	.	1	.	-8	.	2.1	.	.
- CCN1CCN(C(=O)C(C)N(c2ccc(C)cc2)S(C)(=O)=O)CC1 (stereo not given)
→ 0.77	0.1	.	-11	.	-8	.	5.7	.	.
- O=C(COC(=O)c1ccco1)Nc1cc(S(=O)(=O)N2CCCCC2)ccc1Cl
→ 0.74	-0.7	1.8	.	7	-2	i	-0.1	-1.9	7
- NC(=O)c1ccc(-c2nnn(CC(=O)N(C3CCCC3)C3CCS(=O)(=O)C3)n2)cc1 (stereo not given)
→ 0.68	1.2	0.0	.	12	-6	i	0.5	-1.8	7
- CN1C(=O)NC2(O)C(=O)c3ccccc3C12O (stereo not given)
→ 0.74	0.0	.	1	.	-5	.	-0.3	.	.
- CCOc1ccc2[nH]c(=O)c(CN(Cc3ccco3)Cc3nnnn3Cc3ccccc3)cc2c1
→ 0.67	0.6	4.9	1	5	-4	i	-34	4.7	20
- CC(C)NC(=O)N(C)C[C@H]1Oc2c(NC(=O)C3CCCCC3)cccc2C(=O)N([C@H](C)CO)C[C@@H]1C
→ .	-0.3	-1.9&-4.4	.	-4&4	-1	i	0.3	-3.3&0.8	1&6
- O=C(CCCc1ccccc1)NCCc1ccccc1
→ 0.69	0.1	0.2	7	-2	-8	i	5.0	-6.3	-1

Below each compound – Ecoli growth	A1 inh	Ecoli rRNA inh RFP	T cruzi repl	Ecoli rRNA inh OD600	Beta apoptosis	FGF22 binding	UCH37 DUB inh	MLL AF4-AF9 inh	Ecoli rRNA inh
- CNC(=O)CSc1nnc(-c2ccccc2F)n1CCc1ccccc1
→ 0.66	0.1	2.5	-6	-4	-4	i	-0.7	0.9	-6
- COc1ccccc1NC(=O)Nc1nnc(C(C)c2ccccc2)s1 (stereo not given)
→ 0.66	1.0	-2.0	-3	3	-12	i	1.0	3.9	1
- Cc1noc(C)c1CSCc1ccc(Cl)cc1
→ 0.74	-0.5	-9.7	-5	-60	3	i	-1.5	-2.6	-29
- CC(C)c1ccc(C(N)=S)cc1
→ 0.69	-1.2	0.5	-12	-5	-4	i	-1.3	-3.9	-10
- COc1ccc(CNC(=O)COC(=O)/C=C/c2ccc(S(=O)(=O)N3CCOCC3)cc2)cc1
→ 0.67	-0.5	-2.2	-14	0	-3	i	-0.7	0.8	1
- CN(CCc1ccccc1)C(=O)c1ccc(NC(=O)Cc2ccc(NC(=O)C3CCCN(C(=O)c4ccccc4)C3)cc2)cc1 (stereo not given)
→ 0.7	.	1.3	.	-9	.	i	0.4	0.0	-4
- CC(C)(S)[C@@H](N)C(=O)O
→ .	.	0.6	.	7	.	i	-5.3	-1.3	9
- CCN(CC)c1ccc(NC(=O)CNCc2ccccc2Cl)c(C)c1
→ 0.58	-0.1	-3.7	19	-60	-3	i	2.2	14	-16
- COC(=O)c1ccc2c(c1)C(C)(C)C(/C=C/c1ccccc1O)=[N+]2C
→ 0.64	?	.	74*	.	1	.	i	.	.
- COc1cc(C(=O)NCC(C)(C)CNC(=O)c2cc(OC)c(OC)c(OC)c2)cc(OC)c1OC
→ 0.66	0.2	-5.9	-5	-21	.	i	1.6	-4.5	-17

Below each compound – Ecoli growth	A1 inh	Ecoli rRNA inh RFP	T cruzi repl	Ecoli rRNA inh OD600	Beta apoptosis	FGF22 binding	UCH37 DUB inh	MLL AF4-AF9 inh	Ecoli rRNA inh
- Cc1ccc(NC(=O)C2CCN(S(=O)(=O)c3ccc4c(c3)OCCO4)CC2)c(O)c1
→ 0.68	0.2	0.5	2	-4	-1	i	1.5	-16	0
- Cc1ccc(/C(O)=C2/C(=O)C(=O)N(CCN3CCOCC3)C2c2ccccn2)cc1 (stereo not given)
→ 0.68	-1.6	.	-12	.	0	.	15	.	.
- O=C1Nc2ccc(Br)cc2C1(O)c1ccc(F)cc1 (stereo not given)
→ 0.64	0.7	-2.7	-8	-2	-8	i	-1.4	2.9	5
- COc1ccc(C(=O)Cc2cc3cccc(OC)c3oc2=O)cc1
→ 0.67	-0.6	2.4	6	7	-4	i	-1.4	-2.4	1
- Cc1cc(F)ccc1NCc1ccc([N+](=O)[O-])cc1
→ 0.67	1.4	-0.6	-3	-4	-9	i	-2.3	2.1	-13
- Cc1ccccc1N1CCN(Cc2nc(Cc3ccccc3)no2)CC1
→ 0.68	0.4	-0.9*	9	-17*	-6	.	3.2	1.1	-28*
- Nn1c(CN2CCCCC2)nc2ccccc2c1=O
→ 0.67	-0.4	.	-3	.	-2	.	3.5	.	.
- COc1ccc(OC)c(C(c2nnnn2C2CCCC2)N2CCN(c3ccc(F)cc3)CC2)c1 (stereo not given)
→ 0.76	0.5	.	25	.	-4	.	5.6	.	.
- Cc1ccc(N(C)C2=NC(=O)CS2)cc1Cl
→ 0.65	0.3	-1.9	-1	3	-10	i	0.7	-1.2	-3
- O=C(c1ccc2c(c1)OCO2)N1CCN(c2ccc(C(F)(F)F)cn2)CC1
→ 0.65	-0.1	-24	-7	-42	0	i	0.0	6.4	-27

Below each compound – Ecoli growth	A1 inh	Ecoli rRNA inh RFP	T cruzi repl	Ecoli rRNA inh OD600	Beta apoptosis	FGF22 binding	UCH37 DUB inh	MLL AF4-AF9 inh	Ecoli rRNA inh
- O=C(COC(=O)CNC(=O)c1ccccc1Cl)NC1CCCC1
→ 0.62	0.1	2.6	.	6	-6	.	-1.8	-6.7	14
- COC(=O)c1c(N2C(=O)CC(Sc3ccccc3C(=O)O)C2=O)sc2c1CCCC2 (stereo not given)
→ 0.69	-0.5	-0.6	-38	-6	.	i	-0.2	3.8	-1
- O=C(Nc1ccccc1C(=O)N1CCOCC1)c1ccc(F)cc1
→ 0.66	-0.4	.	-5	.	.	.	1.6	.	.
- O=C(NCC(=O)N(c1ccc(F)cc1)C(C(=O)NC1CCCCC1)c1cccnc1)c1ccco1 (stereo not given)
→ 0.66	0.4	-2.9	-10	9	1	i	-1.4	5.6	3
- CC(=O)c1ccc(S(=O)(=O)Nc2ccc(-n3cnnn3)cc2)cc1
→ 0.71	0.2	-1.1	.	5	-8	i	3.0	-2.5	5
- CCn1ncc(CNC(=O)CCSc2nc(-c3ccco3)cc(C(F)(F)F)n2)c1C
→ 0.75	-0.5	-0.1	4	-7	-11	.	-6.4	.	-4
- CCOc1cc(-c2nc(-c3ccncc3)no2)cc(OCC)c1OCC
→ 0.71	0.3	.	14	.	4	.	3.6	.	.
- O=c1c2ccccc2nc(/C=C/c2cccc(Br)c2)n1CCCO
→ 0.68	1.5	-7.5	-4	-27	7	i	-3.5	2.6	-28
- CC(OC(=O)CNC(=O)c1ccc(Cl)c([N+](=O)[O-])c1)C(=O)NC1CCCCC1C (stereo not given)
→ 0.63	.	0.4	.	4	.	i	-1.3	-12	3
- CCOC(=O)c1sc(NC(=O)CSc2nncn2C)nc1C
→ 0.68	0.4	1.3	-8	5	-3	i	-0.9	-1.7	3

Below each compound – Ecoli growth	A1 inh	Ecoli rRNA inh RFP	T cruzi repl	Ecoli rRNA inh OD600	Beta apoptosis	FGF22 binding	UCH37 DUB inh	MLL AF4-AF9 inh	Ecoli rRNA inh
- COc1ccc(-c2nc3n(c2Br)CCC3)cc1
→ 0.72	-10	.	-8	.	1	.	2.9	.	.
- Cc1ccc(S(=O)(=O)NCc2ccc(C(=O)NCCCN3CCC(Cc4ccccc4)CC3)cc2)cc1
→ 0.67	0.1	0.6	26	2	27	i	3.3	3.8	-1
- CC(C(=O)Nc1ccccc1F)N1CCN(S(=O)(=O)c2ccc(C(F)(F)F)cc2)CC1 (stereo not given)
→ 0.66	.	-0.2	.	4	.	i	-1.0	0.5	11
- O=C(CN1CCc2[nH]c3ccccc3c2C1)N1CCCCC1
→ 0.75	-0.9	.	3	.	-4	.	-1.4	.	.
- COC(=O)c1ccccc1Oc1ccc(NC(=O)CCCl)cc1
→ 0.71	0.3	-2.0	-1	-2	2	i	5.7	-1.2	-1
- [N-]=[N+]=CC(=O)CC(c1ccccc1)N1C(=O)c2ccccc2C1=O (stereo not given)
→ 0.75	0.3	.	-4	.	1	.	9.0	.	.

High-throughput results: PubChem, several laboratories
